MenB inh = inhibitors of Mycobacterium tuberculosis MenB enzyme; P9WNP5; MenB enzyme assay, absorbance read-out; some hits fall short of the stated cut; inhibition, %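 (about 12 µg/mL by stock and volumes)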; hit rate 0.43% among 100,000; AID 540299;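 active means mean of two replicates above 30%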;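 further: 0% = no compound and 100% = wells with inactive enzyme; the first replicate is given; strong numbers were not always called active; inactives centre near -10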
Target sequence (P9WNP5 whole entry, looked up): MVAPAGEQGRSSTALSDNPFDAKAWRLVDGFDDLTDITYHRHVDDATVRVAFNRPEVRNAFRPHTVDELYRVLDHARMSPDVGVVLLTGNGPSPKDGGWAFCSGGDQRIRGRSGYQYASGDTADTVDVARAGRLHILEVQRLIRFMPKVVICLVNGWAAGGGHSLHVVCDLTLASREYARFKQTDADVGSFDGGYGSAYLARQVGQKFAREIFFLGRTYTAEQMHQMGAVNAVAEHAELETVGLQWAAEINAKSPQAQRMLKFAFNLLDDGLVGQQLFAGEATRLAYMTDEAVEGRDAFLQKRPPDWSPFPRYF
MbtI inh = inhibitors of Mycobacterium tuberculosis siderophore enzyme MbtI; P9WFX0; hit rate 0.89% among 100,000; purified MbtI enzyme, fluorescence intensity read-out; inhibition, %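 (about 17 µg/mL by stock and volumes)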;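 active means above 50% in both replicates, above 80% if mildly self-fluorescent; inactive means the rest, strongly fluorescent compounds included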;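 further: 0% = mean of negative and 100% = mean of positive controls; one replicate is shown; some compounds called inactive have numbers as strong as hits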
PV pol inh = inhibitors of poliovirus RNA polymerase binding and polymerization. P03300. poliovirus polymerase elongation, fluorescence polarization; active compounds read low. % elongation, % (compound at 16.7 µg/mL). hit rate 0.66% among 150,000; in the data active means % elongation below about 90%; further: some results filed as inactive read as strong as hits
Target sequence (P03300 1749-2209 limits assumed): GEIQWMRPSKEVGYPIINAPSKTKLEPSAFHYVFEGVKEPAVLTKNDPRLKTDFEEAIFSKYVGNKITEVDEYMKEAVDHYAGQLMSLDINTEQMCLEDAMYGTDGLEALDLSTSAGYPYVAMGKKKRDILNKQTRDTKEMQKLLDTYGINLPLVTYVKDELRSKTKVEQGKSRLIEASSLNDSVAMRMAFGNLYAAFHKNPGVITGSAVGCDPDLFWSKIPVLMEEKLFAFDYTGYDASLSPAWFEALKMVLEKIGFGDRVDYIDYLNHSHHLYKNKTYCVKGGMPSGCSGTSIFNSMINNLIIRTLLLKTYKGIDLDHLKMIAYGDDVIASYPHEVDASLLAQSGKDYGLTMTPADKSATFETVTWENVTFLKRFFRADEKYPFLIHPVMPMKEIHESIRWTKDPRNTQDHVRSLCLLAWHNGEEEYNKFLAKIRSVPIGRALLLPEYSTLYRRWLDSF
PV pol inh intensity = second read-out of PV pol inh, no call of its own (marks repeat the call); % elongation; measured here: total intensity read-out; formula for this scale not given here;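 total fluorescence in place of polarization; lower means less elongation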
* marks the source's active call; other numbers are inactive results; i = inactive; / = not tested or not shown; & = joins results of further samples. The order is random; overall some 2% were active at least once.

SMILES | MenB inh | MbtI inh | PV pol inh | PV pol inh intensity
N#Cc1c(Nc2ccccc2)sc(N)c1C(=O)c1ccccc1 | -27 | / | 107 | 119
CCOc1cc(CO)cc(Br)c1OCc1ccc(C(=O)O)cc1 | -5 | 1 | 100 | 101
O=C(/C=C/C(=O)N1CCN(c2ccccc2F)CC1)N1CCN(c2ccccc2F)CC1 | / | -9 | 101 | 94
CCN(CC)c1ccc2c(C)cc(=O)oc2c1 | -194 | 103 | 98 | 103
COc1ccc(OCC(O)CN2CCCCC2)cc1 (stereo unspecified) | -4 | -2 | 103 | 102
Cc1ccc(N2C(=O)N(CC(=O)Nc3ccccc3)c3ccccc3S2(=O)=O)cc1Cl | -18 | -1 | 103 | 103
CC(C)/C=N/NC(=O)c1ccccc1 | -4 | -12 | / | /
Cc1ccc(SCc2nnc(-c3c(-c4ccccc4)noc3C)o2)cc1C | -29 | -9 | 103 | 95
C/C(Nc1ccccc1)=C1\C(=O)C=C(c2ccco2)CC1c1ccco1 (stereo unspecified) | -38 | / | 102 | 109
N#CCc1ccc(NC(=O)C2CCCCC2)cc1 | -5 | -2 | 99 | 103
COc1ccc(NC(=O)CSc2nnc3[nH]c(=O)c(C)nn23)cc1Cl | -21 | 6 | 106 | 108
CCC1C/C(=C\c2sccc2C)C(=O)/C(=C/c2sccc2C)C1 (stereo unspecified) | -15 | 3 | 98 | 101
COc1ccc(-c2cnc(N)s2)cc1 | 1 | / | 105 | 107
CSc1nnc(NC(=O)c2nc(S(=O)(=O)Cc3ccc(F)cc3)ncc2Cl)s1 | -8 | 16 | 100 | 100
O=C(COC(=O)c1ccc2c(=O)n3c(nc2c1)CCCCC3)c1ccc(F)cc1 | 0 | 1 | 101 | 105
Cc1cccc(N2C(=O)c3sc4nccc(=O)n4c3C2=O)c1 | -33 | / | 103 | 107
CC(=O)Oc1ccccc1N(C(C)=O)S(=O)(=O)c1ccc(C)cc1 | -16 | -2 | 107 | 110
CSc1ncc(Cl)c(C(=O)Nc2ccc(S(=O)(=O)N3CCOCC3)cc2)n1 | -7 | -2 | 102 | 103
O=C(Cn1c(=O)cnc2ccccc21)N1CCN(c2ccccc2)CC1 | 7 | 19 | 105 | 108
CCN(CC)S(=O)(=O)c1ccc(N=Nc2c(C)[nH]n(-c3ccccc3)c2=O)cc1 | 3 | -4 | 103 | 104
COc1cccc(-c2cc(C(=O)NC(C)C)no2)c1 | -19 | 2 | 100 | 96
CCc1ccc(Cc2cnc(NC(=O)C3=NCCN3)s2)cc1 | -30 | -1 | 104 | 106
O=c1oc2ccc(O)cc2s1 | 0 | 39 | 102 | 99
O=C(CCn1nnc2ccccc21)OCC(=O)c1ccc(Cl)c(Cl)c1 | -16 | / | 103 | 106
Cc1sc2ncnc(NCc3cccnc3)c2c1C | -8 | / | 105 | 106
O=S(=O)(c1ccccc1)N(Cc1ccccc1)c1ccccn1 | -30 | / | 102 | 97
CCS(=O)(=O)C(=C1Nc2ccccc2N1)S(=O)(=O)CC | 4 | / | 110 | 112
Cc1ccc(Nc2n[nH]c(=O)c3ccccc23)cc1C | 11 | 18 | 98 | 106
Cc1c(C(=O)NN)nn(-c2ccc(F)cc2)c(=O)c1C#N | 0 | 12 | 99 | 95
Cn1c2c(c(=O)[nH]c1=O)C(C(F)(F)F)(C(F)(F)F)NC(=O)N2 | 0 | 3 | 101 | 99
N#Cc1cccc(NC(=O)COC(=O)Cc2ccccc2)c1 | -26 | -6 | 105 | 98
COc1cccc(-c2nn(-c3ccccc3)cc2C(=O)n2nnc3ccccc32)c1 | -18 | -15 | 102 | 104
O=C1/C(=C\c2cccc(Cl)c2)Cc2ccccc21 | -8 | 17 | 101 | 98
CCOC(=O)c1oc2ccc(Br)cc2c1Cn1nc(C(=O)O)c2ccccc2c1=O | -17 | -11 | 105 | 106
Cc1ccc(S(=O)(=O)N2CC=C(C(=O)Nc3cccc(F)c3)CC2)cc1 | -35 | -9 | 99 | 102
COc1ccc2c(c1)C1(NNc3ccccc3O1)C(=O)N2 (stereo unspecified) | -133 | 62 | 120 | 118
Nc1nc2c(ncn2COCCOC(=O)c2ccccc2)c(=O)[nH]1 | 8 | -2 | 101 | 100
Cc1cccc(Cc2cnc(NC(=O)CN3CSCC3=O)s2)c1 | -32 | 3 | 114 | 109
c1cncc(NCc2ccco2)c1 | -2 | -12 | 104 | 109
Cn1c(=O)c2c(O)c(C=NCc3ccccc3)c(=O)n(C)c2n(C)c1=O | -3 | -6 | 105 | 101
CCCNC(=O)CCn1c(=S)oc2ccccc21 | -1 | 7 | 101 | 103
COC(=O)C1=C(N)N(c2ccc(S(N)(=O)=O)cc2)C2=C(C(=O)CCC2)C1c1ccc(OC)cc1 (stereo unspecified) | -7 | / | 102 | 109
Cc1cc(C)c(S(=O)(=O)N(C)c2ccccc2)c(C)c1 | -19 | 6 | 99 | 92
CC(C)(C)/C=N/NC(=O)c1nc(-c2c(F)cccc2Cl)no1 | -14 | 8 | 102 | 99
Oc1[nH]c2ccccc2c1C=NCCc1ccccc1 | -8 | -3 | 100 | 107
CCCc1cc(N2CCN(c3ccccn3)CC2)n2cnnc2n1 | 16 | 6 | 102 | 102
COC(=O)c1ccc(CSc2nnc(COc3ccccc3Cl)n2C2CC2)o1 | -45 | 3 | 101 | 95
CC(OC(=O)c1ccc(-n2cnnn2)cc1)c1ccccc1Cl (stereo unspecified) | -18 | -18 | 103 | 100
CCn1c(O)c(N=NC(=O)c2ccccc2O)c2ccccc21 | -32 | -26 | 97 | 101
CC(=O)N1CCN(C(=O)C23CC4CC(C)(CC(C)(C4)C2)C3)CC1 | -12 | 6 | / | /
Oc1ccccc1C1N(Cc2ccccc2)CCN1Cc1ccccc1 | -16 | -9 | 104 | 99
N=C1C(c2nc3ccccc3[nH]2)=C(O)CN1NC(=O)COc1cccc(F)c1 | -29 | 21 | 105 | 103
COc1ccc(C(=O)NC(C(=O)Nc2ccc3c(c2)OCO3)C(C)C)cc1 (stereo unspecified) | -20 | 2 | 103 | 102
Cc1ccc(-n2[nH]c(C)c(C=O)c2=O)cc1C | 1 | 12 | 102 | 103
O=C(Nc1ccccc1)Oc1ccc2sc(=O)oc2c1 | -62 | -7 | 104 | 98
O=C1N=c2ccc(Br)cc2=C1c1sc(=S)n(-c2cccc(Br)c2)c1O | -20 | 3 | 90 | 116
Cc1ccoc1C(=O)Nc1cccc(Oc2ccccc2)c1 | -22 | -3 | 102 | 105
O=C(OCc1ccccc1Oc1ccccc1)c1ccccn1 | -24 | -4 | 101 | 104
Cc1ccc2c(c1)C1CN(C)CCC1N2C(=O)c1ccccc1 (stereo unspecified) | / | 3 | 101 | 98
CSc1nc2ccc3nc(NC(=O)c4ccccc4C)sc3c2s1 | 7 | 0 | 102 | 106

Next section.
SMILES | MenB inh | MbtI inh | PV pol inh | PV pol inh intensity
OCCN1CCN(CCCN2c3ccccc3Sc3ccc(C(F)(F)F)cc32)CC1 | -9&9 | -11&-4 | 100&103 | 96&101
CC(C)Oc1ccc(C(=O)NCC(=O)Nc2ccccc2N2CCOCC2)cc1 | -7 | -9 | 106 | 99
CCOc1ccc(N2CC(C(=O)NC3CC(C)(C)NC(C)(C)C3)CC2=O)cc1 (stereo unspecified) | -35 | -1 | 100 | 99
O=S(=O)(Nc1ccc2c(c1)OCO2)c1ccccc1C(F)(F)F | 13 | -3 | 109 | 110
CC1CCN(S(=O)(=O)c2ccc3c(c2)CCCC(=O)N3)CC1 | -26 | 10 | 101 | 101
CCOC(=O)N1CCc2c(sc3nc4n(c(=O)c23)N=C(c2ccc(OC)cc2)CS4)C1 | -8 | -1 | 103 | 105
COCc1cc(C)nc2sc(C(=O)N3CCc4ccccc43)c(N)c12 | -26 | -10 | 99 | 106
Cn1nccc1/C=C(/C#N)S(=O)(=O)c1ccccc1 | -12 | -8 | 99 | 116
N/C(=N\OC(=O)c1ccccc1)c1ccc2c(c1)CCO2 | 0 | 0 | 102 | 101
CCc1ccc(C(=O)COC(=O)C2CSC3(C)CCC(=O)N23)cc1 (stereo unspecified) | -38 | -3 | 101 | 90
CCOc1ccccc1NC(=O)c1c(Cl)nc2sccn12 | / | 1 | 103 | 104
COCC(O)CNc1ccccc1 (stereo unspecified) | 5 | -5 | 100 | 102
Cc1cc(C)cc(NS(=O)(=O)c2ccc3c(c2)C(C(C)C)C(=O)N3)c1 (stereo unspecified) | 0 | -22 | 102 | 103
O=C(N=Nc1c(O)[nH]c2ccccc12)c1ccc2c(c1)OCO2 | -22 | -4 | 103 | 101
O=C(OCc1ccccc1)c1cnc(Cl)c(Cl)c1 | / | -2 | 100 | 98
O=C(CN1C(=O)S/C(=C\c2ccc(O)cc2)C1=O)c1ccccc1 | 0 | -2 | / | /
COC(=O)N/N=C1\CCCCc2ccccc21 | 12 | 1 | 101 | 101
Cc1ccc(-c2noc(Cn3nc(C(=O)O)c4ccccc4c3=O)n2)cc1 | -6 | 5 | 103 | 104
O=C(Nc1ccccc1)OCCOc1ccccc1 | -23 | 0 | 99 | 102
O=C(C1CCN(S(=O)(=O)c2ccccc2)CC1)N1CCc2ccccc21 | -5 | -59 | 101 | 102
CCCN1C/C(=C\c2ccc(N(C)C)cc2)C(=O)/C(=C/c2ccc(N(C)C)cc2)C1 | -12 | 9 | 74 | 194
COc1ccc(O)c(C(=O)c2cnn(C(=O)CN3CCCC3=O)c2)c1 | -21 | i | 106 | 106
COC(=O)c1cccc2c1NC(c1cccnc1)C1CC=CC21 (stereo unspecified) | -60 | 90 | 96 | 113
CC(C)(C)c1ccc(-c2nc(=O)[nH]n2-c2ccccc2)cc1 | -13 | -4 | 97 | 91
O[C@H]1[C@H](O)[C@@H](O)CN2CC[C@H](O)[C@H]12 | -7 | -17 | 102&103 | 101&101
CC1CCN(C(=O)COc2ccc(C(C)C)cc2)CC1 | -65 | -1 | 103 | 101
CC(=O)Nc1ccccc1OC(=O)c1cccc(C)c1 | -11 | -24 | 103 | 103
CCN(Cc1ccccc1)C(=O)Cn1ncc2c3ccccc3n(Cc3c(C)cc(C)cc3C)c2c1=O | 5 | 20 | 100 | 101
Cc1cc(C)cc(Nc2cc(C(=O)NC3CCCC3)c3ccccc3n2)c1 | -28 | 28 | 102 | 105
O=S(=O)(c1ccc(-c2ccon2)s1)N(Cc1ccccn1)Cc1ccccn1 | -10 | -4 | 104 | 103

Only PV pol inh and MenB inh, for some of the entries so far:
structure | PV pol inh | MenB inh
O[C@H]1[C@H](O)[C@@H](O)CN2CC[C@H](O)[C@H]12 | 102&103 | -7
CC1CCN(C(=O)COc2ccc(C(C)C)cc2)CC1 | 103 | -65
CC(=O)Nc1ccccc1OC(=O)c1cccc(C)c1 | 103 | -11

Random excerpt: five entries already listed.
SMILES | MenB inh | MbtI inh | PV pol inh | PV pol inh intensity
O=c1oc2ccc(O)cc2s1 | 0 | 39 | 102 | 99
Cc1ccoc1C(=O)Nc1cccc(Oc2ccccc2)c1 | -22 | -3 | 102 | 105
CCOc1cc(CO)cc(Br)c1OCc1ccc(C(=O)O)cc1 | -5 | 1 | 100 | 101
O=S(=O)(Nc1ccc2c(c1)OCO2)c1ccccc1C(F)(F)F | 13 | -3 | 109 | 110
COc1cccc(-c2cc(C(=O)NC(C)C)no2)c1 | -19 | 2 | 100 | 96

(cont.)
SMILES | MenB inh | MbtI inh | PV pol inh | PV pol inh intensity
CN(C(=O)Cn1cc(C#N)c2ccccc21)c1ccccc1 | -6 | / | 103 | 107
CC(=O)NCCC(=O)Nc1ccc(C(F)(F)F)cc1 | -117 | -15 | 99 | 103
CC1(C)CC(=O)C2=C(C1)NC(Nc1nc3ccccc3o1)=NC21CCCCC1 | -4 | 32 | 100 | 105
CNC(=S)NC1=NCCS1 | -21 | 13 | 106 | 104
Cc1c(O)nc(N)[nH]c1=O | 3 | -1 | 104 | 102
COc1ccc(-c2cc(C(F)(F)F)nc(SCC(=O)N3CCCCCC3)n2)cc1OC | -5 | 43 | 103 | 102
CCN(CC)S(=O)(=O)c1ccc2oc(=S)n(CN(C(C)C)C(C)C)c2c1 | -42 | -6 | 88 | 95
NC(=O)C1CCN(C(=O)CCCc2nnc3n4nc(-c5ccccc5)nc4c4ccccc4n23)CC1 | 9 | 4 | 100 | 103
O=C(O)CSc1ncnc2c1oc1ccccc12 | -22 | 17 | 101 | 104
Cc1cccn2c(=O)c3cc(C#N)c(=O)n(Cc4ccco4)c3nc12 | -72 | 88 | 100 | 105
CCN(CC)S(=O)(=O)c1ccc(N2Cc3ccccc3C2=N)cc1 | 4 | 5 | 101 | 106
CCn1nc(C)c(Br)c1C(=O)Oc1ccc(Cl)cc1 | -8 | -4 | 107 | 109
CN(CCC#N)C(=O)c1cc2cccnc2n(Cc2ccccc2)c1=O | 1 | 20 | 102 | 109
O=C(Nc1ccncc1)c1ccc2c(c1)S(=O)(=O)c1ccccc1C2=O | -13 | -10 | 103 | 106
Cc1sc(NC(=S)NC(=O)c2ccco2)c(C#N)c1C | -12 | -3 | 101 | 101
NC(Cc1nc2ccccc2[nH]1)c1cccnc1 (stereo unspecified) | 8 | 90 | 102 | 102
Cc1cccc(NC(=O)N2CCC(CN3CCc4ccccc4C3)CC2)c1 | -19 | -8 | 100 | 102
Cc1ccc(CNC(=O)CC2=NS(=O)(=O)c3ccccc3N2)cc1 | -8 | -23 | 100 | 101
C=CCNC(=O)CN1C(=O)c2cccnc2Sc2ccccc21 | 19 | -2 | 101 | 99

Screening data as filed in PubChem.
